Ba CapD inh – blocks the Bacillus anthracis CapD enzyme; purified CapD enzyme, fluorescence intensity read-out; active compounds read low; some hits fall short of the stated cut; z-score (test concentration not listed); hit rate 0.23% among 140,000; AID 492967;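 active means z-score under -4 in either of two replicates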;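 further: stock transfer was 100 nL into about 40 µL; score is relative to mean and spread of the plate; one replicate is shown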
AID504770 – growth inhibitors of E. coli YBA685 in a screen for V. cholerae RctB (chromosome II replication) inhibitors | E. coli YBA685 rctB-dependent plasmid, OD600 growth, 3 h; active compounds read low | z-score (test concentration not listed) | hit rate 0.27% among 130,000;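 active means z-score under -2 on both plates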;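 further: wells of about 30 µL received 100 nL stock; score is relative to mean and SD of the test wells; the first replicate is given; strong numbers were not always called active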
Numbers without * were called inactive; x = not tested or not shown. Compounds as they come. About 0.39% of those tested had a hit in this group.

SMILES,Ba CapD inh,AID504770
CCCn1c(=O)c(CC(=O)OCC)c(O)c2ccccc21,2.72,2.35
CC(C)c1ccc(NC(=O)C(c2ccccc2)N2CCc3ccccc32)cc1 (stereo unspecified),2.1,x
COc1ccc(C(=O)c2sc3nc(-c4ccc(OC)cc4)ccc3c2N)cc1,0.53,x
c1ccc(-c2noc(CNC3CCCC3)n2)cc1,-0.525,-0.8
Cc1ccc(S(=O)(=O)CC(O)COc2ccc(F)cc2Cl)cc1 (stereo unspecified),-0.48,x
COC(=O)CSCc1nc2ccccc2[nH]c1=O,7.36,1.65
COc1cc(/C=C/C(=O)N(Cc2nnc(-c3ccc(Cl)cc3)o2)C2CCCC2)cc(OC)c1OC,x,0
Cc1nc2ncnn2c(C)c1CCC(=O)N1CCc2ccccc21,-0.865,-0.95
O=S(=O)(c1cc(C(F)(F)F)cc(C(F)(F)F)c1)N1CCSCC1,-0.335,x
C=CCNc1nc(-c2ccc(Cl)cc2)cs1,0.29,-0.35
Nc1nc2ccc(S(=O)(=O)N3CCCCC3)cc2s1,-0.905,-0.1
O=C(O)/C=C/c1ccc(-c2ccc(Cl)cc2)o1,27.9,0.95
Cc1ccc(/C(N)=N/OC(=O)Oc2ccccc2)cc1,-0.01,0.5
O=C(C(Cc1ccccc1)n1cccc1)N1CCCCC1 (stereo unspecified),-0.89,2
COc1ccc(CCC(=O)NCC#N)cc1,-0.505,1.7
CCC(C)C1NC(=O)NC1=O (stereo unspecified),0.845,0.15
CCOc1ccccc1CNS(=O)(=O)c1ccc(Cl)cc1Cl,-0.27,x
Cc1nnc(CSc2nnc(COc3ccccc3)o2)o1,x,-0.45
CC(CCOC(=O)N1CCC(C(=O)c2ccc(F)cc2)CC1)c1ccccc1 (stereo unspecified),-0.395,x
Cc1ccn(CCCNC(=O)c2cn(C(C)c3ccccc3F)nn2)n1 (stereo unspecified),0.7,-0.65
Cc1cccc(N=Cc2cc(I)cc(I)c2O)c1,-1.06,x
CC1CC(Nc2ncnc3nc[nH]c23)CC(C)(C)C1 (stereo unspecified),0.055,-1
CN(C)CC(C)(C)NS(=O)(=O)c1ccc(Cl)cc1,x,-0.35
COc1ccc(C(=O)CSc2nnc(-c3ccoc3C)n2CC(C)C)cc1,x,-0.05
CC(C)c1ccccc1OCC(=O)NC(C)C1CCCO1 (stereo unspecified),0.505,-1
Cc1noc(C)c1CCC(=O)N1CCC(c2c[nH]c3ccccc23)(c2c[nH]c3ccccc23)CC1,-1.48,2.05
O=S(=O)(c1cccs1)N1CCN(CCO)CC1,x,-0.2
Cc1ccc(N2C(=O)C3C4c5ccccc5C(C=O)(c5ccccc54)C3C2=O)c(C)c1 (stereo unspecified),6,x
CC1(C)C2CCC13CS(=O)(=O)N1OC13C2 (stereo unspecified),0.605,-0.5
COc1ccc(-n2nnnc2SCC(=O)N2CCCCC2C)cc1 (stereo unspecified),x,-0.05
CCCn1c2ccccc2c2ccccc21,8.75,0.15
CC(C)CC(=O)N1CCN(Cc2ccc(Cl)cc2)CC1,66.2,1.75
N#CC(C#N)=C(N)COc1ccc(F)cc1,-0.535,0.7
CCCOc1ccc(=O)n(C)n1,-0.465,-0.3
CN(c1ccccc1)S(=O)(=O)c1ccccc1C(=O)O,x,-0.1
CCN(CC)C(=S)NC(=O)C12CC3CC(CC(C3)C1)C2,x,0.65
c1ccc2[nH]c(SCCCN3CCCCC3)nc2c1,0.16,-0.4
Cc1ccc(CSCc2ccc(C(=O)NCCC(C)C)o2)cc1,-1.1,-0.25
Cc1ccc2c(CN3CCCCCC3)cc(=O)oc2c1,0.805,-0.6
O=C(O)CNc1ccccc1C(=O)O,109,2.6
Cc1ccc(S(=O)(=O)NC2C(C)(C)C3CC[C@]2(C)C3)cc1 (stereo partly specified),-0.685,x
CCOC(=O)c1c(NC(=O)c2ccc(N3C(=O)C4C5C=CC(C5)C4C3=O)cc2)sc2c1CC(C)CC2 (stereo unspecified),0.58,x
CC1(C(=Nc2ccc(Cl)cc2)C(=O)Nc2ccc(Cl)cc2)OC(=O)C[n+]2ccccc21 (stereo unspecified),0.045,0.55
O=C(NC1CCCC1)c1cc(C2CC2)on1,-0.65,-0.85
O=C(N/N=C/c1cccc(O)c1)N/N=C/c1cccc(O)c1,-0.695,x
Cc1ccc(-c2oc3ncnc(N)c3c2-c2ccc(C)cc2)cc1,58.1,-0.45
COc1ccc(NC(=O)C(NC(=O)c2ccc(=O)[nH]c2)c2ccc(C)cc2)cc1 (stereo unspecified),-0.09,x
Cc1cc(C(=O)OCC(=O)N(C)C2CCCCC2)c(C)o1,-0.125,1.1
CCCn1c(=O)n(C)c(=O)c2c(SCC(=O)/C(C#N)=C(\C)N)nc(CC(C)C)nc21,x,0.5
CC(=O)c1ccc(-c2c(Cl)cc(Cl)cc2Cl)o1,-0.01,x

A draw from above in order of molecular weight, high to low:
SMILES,Ba CapD inh,AID504770
CCCn1c(=O)n(C)c(=O)c2c(SCC(=O)/C(C#N)=C(\C)N)nc(CC(C)C)nc21,x,0.5
O=S(=O)(c1cccs1)N1CCN(CCO)CC1,x,-0.2
Cc1ccc2c(CN3CCCCCC3)cc(=O)oc2c1,0.805,-0.6

The list continues.
SMILES,Ba CapD inh,AID504770
O=C(CCN1CCN(Cc2ccc3c(c2)OCO3)CC1)N1N=CCC1(O)C(F)(F)F (stereo unspecified),x,-0.7
CC(C)(C)c1cc(C(=O)CN2C3=NCCCN3c3ccccc32)cc(C(C)(C)C)c1O,-0.615,x
CSC(=NC(C)C)NC(C)C,-0.675,x
O=C(O)C(F)(F)C(NCc1ccccc1)c1ccccc1 (stereo unspecified),0.5,-0.7
Cc1ccc2c(Cl)cc(Cl)c(OCC(=O)N3CCc4ccccc43)c2n1,-0.17,-0.1
CCC(C)(C)c1ccc(S(=O)(=O)NCCc2ccc(OCc3ccccc3)c(OCc3ccccc3)c2)cc1,-0.36,x
CCCCN(C)S(=O)(=O)c1cccc2cccnc12,-0.065,1.2
CCOP(=O)(OCC)C(Nc1ccc(Br)cc1)c1ccc(N(C)C)cc1 (stereo unspecified),0.705,x
CC(C)c1ccc(C2SCC(=O)N2C)cc1 (stereo unspecified),x,1.65
COc1ccc(CNC(C)C(=O)NC2CCCCC2C)cc1 (stereo unspecified),x,-0.55
c1ccc(CNc2nc(NC3CCCCC3)nc(N3CCOCC3)n2)cc1,0.19,-0.25
CSc1nnc(C2CCCN2)n1C (stereo unspecified),x,0.1
Clc1nc(Cl)nc(Nc2ccccc2)n1,-0.26,0.65
COc1cc(/C=N/NC(=O)CSCc2c(Cl)cccc2Cl)cc(OC)c1OC,-0.425,x
CN(C)c1ccc(C(C#N)=C(C#N)C#N)cc1,-0.96,1.05
CC1=C(C(=O)OCc2ccccc2)C(c2ccc(Cl)cc2)C(C#N)=C(N)O1 (stereo unspecified),-0.525,x
O=c1cccc2n1C[C@H]1CNCC2C1,x,-0.35
CC1C(=O)C(C)C(c2ccco2)NC1c1ccco1 (stereo unspecified),-0.08,1.4
Cc1cc(C)c(C)c(OCC(=O)N(Cc2nc(-c3ccccc3)no2)C2CCCCC2)c1,0.07,-0.5
Cc1ccc(-n2cc(-c3ccccc3)c3c(=O)[nH]cnc32)cc1,-0.085,0.15
COc1ccc(F)c(/C=N/NC(=O)c2ccccc2NC(=O)c2cccs2)c1,0.645,x
O=C(CNC(=O)c1cccs1)c1ccccc1,-0.23,-1.4
O=S(=O)(c1c(F)cccc1F)N1CCN(Cc2c(O)ccc3ccccc23)CC1,x,0.4
CO[C@@H]1C=C2CCN(C)[C@@H]2C2c3cc4c(cc3C(=O)OC21)OCO4 (stereo partly specified),-0.71,x
Nc1nnnn1/N=C/c1cccc(Br)c1,x,-0.65
CCCCc1c(COC)nc(N)[nH]c1=O,-0.995,-0.3
Cc1ccc(NC(=O)C2CC(=O)N(Cc3ccccc3)C(=Nc3ccccc3)S2)c(C)c1 (stereo unspecified),0.6,0.9
Cn1c(C(=O)NCc2ccccn2)cc2c(=O)n(C)c3ccccc3c21,14.5,-0.3
O=C(Cc1ccccc1)NCc1ccc(F)cc1,0.455,-0.45
O=C1c2ccccc2C(=O)C1c1cc(=O)[nH]c2c1ccc1ccccc12,-1.11,-0.05
CC(C)CCN1C(=O)c2ccc(C(=O)C(C#N)c3ccccn3)cc2C1=O (stereo unspecified),x,0.4
CC(C)N1CCNCC1,x,-0.65
O=c1[nH]c(O)c(C=NCc2ccc3c(c2)OCO3)c(=O)[nH]1,x,1
NNC(=O)c1cc2sccc2s1,0.36,0.6
CC(=O)OC1(c2ccccc2)CC(C)N(CC(C)C)C[C@@H]1C (stereo partly specified),0.185,x
CC1=C(C)N(c2ccccc2)NC(=S)S1,-1.77,-1.1
Cn1c(-c2ccccc2)c(C(=O)COC(=O)c2ccc(C#N)cc2)c2ccccc21,x,0.05
Clc1ccc(OCc2noc(-c3ccoc3)n2)c(Cl)c1,-0.64,-1.15
COc1cc(/C=C2/SC(=S)N(Cc3ccccc3)C2=O)ccc1Oc1ccc([N+](=O)[O-])cc1[N+](=O)[O-],-0.785,x
O=C(Cn1c(S(=O)(=O)Cc2ccccc2)nc2ccccc21)NC1CC1,-0.25,-0.5
Cc1cc2c(cc1S(=O)(=O)N1CCOc3ccccc31)n(C)c(=O)n2C,x,0.55
Cc1ccc(CNC(=O)C2(O)c3ccccc3NC(=O)N2c2ccc(C)c(C)c2)cc1 (stereo unspecified),0.11,x
CCc1nn(CC(=O)NCCc2c[nH]c3ccccc23)c(=O)c2cc3occc3n12,-0.025,-0.5
Cc1cc(C)nc(NS(=O)(=O)c2ccc(NS(=O)(=O)CC34CCC(CC3=O)C4(C)C)cc2)n1 (stereo unspecified),x,0.9
O=C(OCc1ccc([N+](=O)[O-])cc1)C1CCCN1C(=O)OCC1CCCN(Cc2cc3ccccc3o2)C1 (stereo unspecified),-0.64,x
CC(C)c1n[nH]c2c1CCCC2,0.1,-0.4
Cn1c(C(=O)NCCc2ccccc2)cc2cc(S(C)(=O)=O)ccc21,-0.46,x
Cc1nc(-c2cc(C#N)c(SCCC(=O)OC(C)(C)C)nc2C)cs1,2.17,-0.2
COC(=O)c1cc(S(=O)(=O)NC2CCCC2)cn1C,0.045,1.65
CN(C(=O)CSc1ccccc1C(=O)O)c1ccccc1,0.185,-0.85

(list continues)
SMILES,Ba CapD inh,AID504770
CN(C)c1ccc(/C=C/C=N/N=c2/sc3ccccc3n2C)cc1,-0.035,0.9
O=S(=O)(NCC(O)c1ccccc1)c1cc(Cl)sc1Cl (stereo unspecified),-0.44,0.55
O=C(NC1C2CC3CC(C2)CC1C3)c1cccc(Cl)c1 (stereo unspecified),0.745,-0.05
FC(F)(F)c1cc(-c2ccccc2)n2c(n1)nc1ccccc12,-0.58,-0.9
CCn1c(SC)nc2c(c1=O)C1(CCCC1)Cc1ccccc1-2,0.485,0.35
CCCn1c(=O)c(C#N)nn(-c2ccccc2)c1=O,-0.355,x
COC(=O)c1c(C)sc2c(C(F)(F)F)cc(OC)nc12,0.35,-0.75
c1cc2c(cc1CNc1ccc3nncn3n1)OCO2,-0.135,-0.4
COc1ccc(C(=O)N/N=c2/c(=O)c(=O)c3ccccc23)cc1,x,-0.2
O=C(CC(c1ccccc1)c1ccccc1)NCC1COc2ccccc2O1 (stereo unspecified),-0.3,0.1
O=c1c(-c2ccccc2Cl)coc2cc(O)ccc12,7.22,0.55
CC(C)C(=O)N1CCCSC1=Nc1ccccc1,x,-0.85
COCCCNC(=O)C(=O)Nc1ccc(C)c(C)c1,0.36,x
O=C1c2ccccc2C(=O)c2c(NC(=O)C(c3ccccc3)c3ccccc3)cccc21,0.005,x
CN(C)c1ccc(C=Nc2ccccc2)cc1,-0.695,1.8
CC(=O)Nc1ccc(S(=O)(=O)NCc2ccc(C(=O)NCCN3CCCCCC3)cc2)cc1,-1.42,0.15
CCOC(=O)N1CCN(C(=O)c2sc3ncnc(N4CCN(c5ccccc5)CC4)c3c2C)CC1,-0.205,x
O=c1nc2n(-c3cccc(C(F)(F)F)c3)c3ccccc3cc-2c(=O)[nH]1,1.29,x

Complete entries, looked up by structure. Values in the order: Ba CapD inh	AID504770
`O=C(CC(c1ccccc1)c1ccccc1)NCC1COc2ccccc2O1` (stereo unspecified) is entered as -0.3	0.1
`COC(=O)c1c(C)sc2c(C(F)(F)F)cc(OC)nc12` is entered as 0.35	-0.75
`FC(F)(F)c1cc(-c2ccccc2)n2c(n1)nc1ccccc12` is entered as -0.58	-0.9
`O=S(=O)(NCC(O)c1ccccc1)c1cc(Cl)sc1Cl` (stereo unspecified) is entered as -0.44	0.55

Source: PubChem BioAssay (ICCB-Longwood Screening Facility, Harvard Medical School)
